Source: PubChem (Johns Hopkins Ion Channel Center)
KCNQ2 pot – potentiators of rat KCNQ2 potassium channel; CHO-K1 KCNQ2, FluxOR thallium flux fluorescence; active compounds read high; B-score at 10 µM; actives 0.54% (n = 310,000); AID 2239, 2010;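 active = fluorescence ratio B-score at least 3 SD of library B-scores, with initial fluorescence B-score within 3 SD, cut at about 5.3 in these data; same plate scores as AID 2156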;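 also: B-score of peak minus minimum over baseline fluorescence ratio after K+ and Tl+ stimulus; positive B-score means potentiation of KCNQ2 with more thallium influx and brighter signal; only the inactives scoring about 0 or higher are listed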
Target sequence (O88943 whole entry, looked up): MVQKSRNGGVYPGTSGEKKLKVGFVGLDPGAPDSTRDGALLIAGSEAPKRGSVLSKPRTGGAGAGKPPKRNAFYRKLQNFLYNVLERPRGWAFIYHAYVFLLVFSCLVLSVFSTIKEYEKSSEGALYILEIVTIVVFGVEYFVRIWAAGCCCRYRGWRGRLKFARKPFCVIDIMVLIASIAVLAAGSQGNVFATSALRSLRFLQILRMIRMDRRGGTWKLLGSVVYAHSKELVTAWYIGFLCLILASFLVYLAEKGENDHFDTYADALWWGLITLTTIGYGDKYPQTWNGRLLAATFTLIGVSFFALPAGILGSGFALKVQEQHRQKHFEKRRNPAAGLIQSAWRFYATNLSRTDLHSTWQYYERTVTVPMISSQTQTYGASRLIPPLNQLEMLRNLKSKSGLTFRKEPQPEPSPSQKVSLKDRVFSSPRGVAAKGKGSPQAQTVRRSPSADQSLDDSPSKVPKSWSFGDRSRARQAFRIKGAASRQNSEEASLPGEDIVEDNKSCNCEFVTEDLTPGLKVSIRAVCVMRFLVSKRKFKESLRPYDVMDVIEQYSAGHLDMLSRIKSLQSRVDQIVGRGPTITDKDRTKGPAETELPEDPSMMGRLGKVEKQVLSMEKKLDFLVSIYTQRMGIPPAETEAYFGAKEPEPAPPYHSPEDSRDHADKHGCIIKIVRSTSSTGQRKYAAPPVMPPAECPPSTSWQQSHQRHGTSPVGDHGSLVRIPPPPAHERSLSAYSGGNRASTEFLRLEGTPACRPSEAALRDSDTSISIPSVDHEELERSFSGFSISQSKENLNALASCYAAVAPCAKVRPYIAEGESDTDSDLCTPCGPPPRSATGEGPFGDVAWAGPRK
KCNQ2 pot baseline – second read-out of KCNQ2 pot, no call of its own (marks repeat the call); B-score; compound at 10 µM; measured here: initial fluorescence intensity artifact check;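 brightness before thallium and not channel activity; 0 = typical well and far values either way flag optical interference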
The depositor's hits bear a star.

`Cc1cc(SCC(=O)OCC(=O)NCc2ccc3c(c2)OCO3)c(C)cc1Br` gave KCNQ2 pot 0.14 and KCNQ2 pot baseline 0.01.
Screening Cc1ccc(S(=O)(=O)N2CCCCC2c2cccnc2)c(C)c1C (stereo unspecified) returned KCNQ2 pot 0.02 and KCNQ2 pot baseline 0.31.
For C=CCn1c(SCC(=O)NC2CC2)nnc1-c1cccs1 the results were KCNQ2 pot 1 and KCNQ2 pot baseline -0.42.
Screening NC(=O)c1c(NC(=O)CCCn2cnc([N+](=O)[O-])n2)sc2c1CCCC2 returned KCNQ2 pot 0.21 and KCNQ2 pot baseline -0.23.
For COc1ccc(CCOC(=O)c2cccc(NC(C)=O)c2)cc1 the results were KCNQ2 pot 1.1 and KCNQ2 pot baseline -1.2.
`Nc1nc(C(F)(F)F)cc(=O)[nH]1` gave KCNQ2 pot 1.1 and KCNQ2 pot baseline -1.9.
`CN(C)S(=O)(=O)c1ccc(Cl)c(C(=O)NC2CCN(Cc3ccccc3)C2)c1` (stereo unspecified) gave KCNQ2 pot 0.08 and KCNQ2 pot baseline -0.23.
Cc1c(NC(=O)c2cc(-c3ccc4c(c3)OCO4)on2)c(=O)n(-c2ccccc2)n1C was read as KCNQ2 pot 0.79 and KCNQ2 pot baseline 0.47.
Cc1ccc(O)c(CCc2ccc(O)cc2)n1 was read as KCNQ2 pot 0.18 and KCNQ2 pot baseline 0.67.
For Cc1cccc(NS(=O)(=O)c2cccc3cccnc23)n1 the results were KCNQ2 pot 0.91 and KCNQ2 pot baseline -0.14.
O=[N+]([O-])c1ccc(Cl)c2cccnc12 was read as KCNQ2 pot 0.05 and KCNQ2 pot baseline 0.4.
O=c1c(-c2ccc(Cl)cc2)[n+]([O-])c2ccccc2n1OCc1nc2ccccc2[nH]1 was read as KCNQ2 pot 0.11 and KCNQ2 pot baseline -1.4.

The list goes on, starting with the last 4 of the part before.
Cc1ccc(O)c(CCc2ccc(O)cc2)n1 was read as KCNQ2 pot 0.18 and KCNQ2 pot baseline 0.67.
For Cc1cccc(NS(=O)(=O)c2cccc3cccnc23)n1 the results were KCNQ2 pot 0.91 and KCNQ2 pot baseline -0.14.
O=[N+]([O-])c1ccc(Cl)c2cccnc12 was read as KCNQ2 pot 0.05 and KCNQ2 pot baseline 0.4.
O=c1c(-c2ccc(Cl)cc2)[n+]([O-])c2ccccc2n1OCc1nc2ccccc2[nH]1 was read as KCNQ2 pot 0.11 and KCNQ2 pot baseline -1.4.
`CN1CCN(C(=O)c2cn(-c3ccccc3)nc2-c2cccnc2)CC1` gave KCNQ2 pot 0.25 and KCNQ2 pot baseline -0.82.
Screening COc1ccc(CCNC2CC(=O)N(CCc3ccc(OC)c(OC)c3)C2=O)cc1 (stereo unspecified) returned KCNQ2 pot 0.93 and KCNQ2 pot baseline -0.19.
For COc1cccc(C2Nc3ccc4ccccc4c3C3=C2C(=O)CCC3)c1O (stereo unspecified) the results were KCNQ2 pot 0.52 and KCNQ2 pot baseline 0.51.
`CC(C)Cc1nc2n[nH]c(N)c2c2c1COC(C)(C)C2` gave KCNQ2 pot 0.9 and KCNQ2 pot baseline 0.53.
COc1ccc(NC(=O)CN(C)C(=O)c2cccc(S(=O)(=O)N3CCN(C)CC3)c2)cc1 was read as KCNQ2 pot 0.54 and KCNQ2 pot baseline -2.
`COc1ccc(S(=O)(=O)NCC(c2ccco2)N2CCOCC2)cc1` (stereo unspecified) gave KCNQ2 pot 2.8 and KCNQ2 pot baseline -1.8.
CCOC(=O)C1=C(COC(=O)CNS(=O)(=O)c2ccc(C)cc2)NC(=O)NC1C (stereo unspecified) was read as KCNQ2 pot 0.75 and KCNQ2 pot baseline 0.18.
`O=C(COC(=O)C12CC3CC(CC(O)(C3)C1)C2)NC12CC3CC(CC(C3)C1)C2` gave KCNQ2 pot 0.23 and KCNQ2 pot baseline 0.33.
CCOC(=O)c1sc2nc(CSc3nc4ccccc4n3CC)[nH]c(=O)c2c1C was read as KCNQ2 pot 1.2 and KCNQ2 pot baseline 0.42.
Cc1ccc(N/N=C(\C#N)C(N)=S)c(C)c1 was read as KCNQ2 pot 0.08 and KCNQ2 pot baseline 0.08.
Cc1ccc2cc(S(=O)(=O)NCCCC(=O)O)ccc2c1 was read as KCNQ2 pot 0.91 and KCNQ2 pot baseline -0.2.
`O=C(c1cc2c(s1)CCCCC2)N1CCN(c2ncccn2)CC1` gave KCNQ2 pot 0.57 and KCNQ2 pot baseline -0.68.
For CCOC(=O)N1CCN(C(=O)/C=C/c2ccc(C(C)(C)C)cc2)CC1 the results were KCNQ2 pot 1.5 and KCNQ2 pot baseline -1.5.
`CNC(=O)c1cc2c(-c3ccccc3)nn(C)c2s1` gave KCNQ2 pot 0.95 and KCNQ2 pot baseline -0.19.
COc1cc(CC(=O)Nc2ccccc2N2CCCCC2)cc(OC)c1OC was read as KCNQ2 pot 0.46 and KCNQ2 pot baseline 1.3.
For CC(Nc1ncnc2ccccc12)c1ccccc1 (stereo unspecified) the results were KCNQ2 pot 2.4 and KCNQ2 pot baseline 0.15.
`CCOC(=O)CC1=NS(=O)(=O)c2ccccc2N1` gave KCNQ2 pot 0.08 and KCNQ2 pot baseline 0.99.
CCc1ccc2[nH]c3nc(N/N=C/c4ccc(O)cc4O)nnc3c2c1 was read as KCNQ2 pot 0.7 and KCNQ2 pot baseline -1.4.
`CCOC(=O)C(C(=O)OCC)=C1OC(=O)c2ccccc21` gave KCNQ2 pot 0.75 and KCNQ2 pot baseline -0.63.
`COc1ccccc1C1/C(=C(/O)c2ccc(Cl)cc2)C(=O)C(=O)N1CCN1CCOCC1` (stereo unspecified) gave KCNQ2 pot 0.07 and KCNQ2 pot baseline -0.03.
Screening Cc1cc(C(=O)Nc2ccccn2)no1 returned KCNQ2 pot 1.5 and KCNQ2 pot baseline 0.14.
Screening COc1ccc(C(=O)COC(=O)CCn2nnc(-c3cccs3)n2)cc1 returned KCNQ2 pot 0.01 and KCNQ2 pot baseline -0.33.
O=C(Nc1cc2c3c(c1)CC(=O)N3CCC2)c1cccc(F)c1 was read as KCNQ2 pot 0.44 and KCNQ2 pot baseline 0.04.
NC(=O)c1ccc(NC(=O)COC(=O)c2ccc([N+](=O)[O-])cc2)cc1 was read as KCNQ2 pot 0.79 and KCNQ2 pot baseline -0.53.
Screening CCCn1nc(NC(=O)C(C)C)c2cc3cc(OC)ccc3nc21 returned KCNQ2 pot 0.82 and KCNQ2 pot baseline -0.68.
CCOC(=O)C1=C(C)NC(SCC(=O)O)=NC1c1ccccc1 (stereo unspecified) was read as KCNQ2 pot 0.27 and KCNQ2 pot baseline 1.1.
Screening O=C(O)c1cc(NS(=O)(=O)c2cccc3nsnc23)cc(C(=O)O)c1 returned KCNQ2 pot 0.24 and KCNQ2 pot baseline -1.2.
Screening CCOc1ccc(-c2c(C(=O)N/N=C/c3c[nH]c4ccccc34)nnn2-c2nonc2N)cc1 returned KCNQ2 pot 1.9 and KCNQ2 pot baseline -0.43.
For CCN1CCCC(CO)(Cc2ccccc2)C1 (stereo unspecified) the results were KCNQ2 pot 0.29 and KCNQ2 pot baseline -1.6.
For Cc1cccc(S(=O)Cc2ccc(C(=O)N3CCOCC3)o2)c1 (stereo unspecified) the results were KCNQ2 pot 1.7 and KCNQ2 pot baseline -1.1.
Screening CC1CCCC(NC(=O)C2CCN(C(=O)Nc3ccccc3)CC2)C1C (stereo unspecified) returned KCNQ2 pot 0.94 and KCNQ2 pot baseline -0.04.
For O=C(O)C[C@H](O)C[C@H](O)/C=C/c1c(C2CC2)nc2ccccc2c1-c1ccc(F)cc1 the results were KCNQ2 pot 1.5 and KCNQ2 pot baseline -1.7.
For Cc1cc(C)n2nc(C(=O)N/N=C/c3ccccc3Cl)nc2n1 the results were KCNQ2 pot 0.3 and KCNQ2 pot baseline 1.
Screening COc1ccc(Cl)cc1NC(=O)CN1CCCC1 returned KCNQ2 pot 2.4 and KCNQ2 pot baseline -0.03.
For O=C(CCn1cnc2ccccc21)N/N=C/c1ccc(O)cc1 the results were KCNQ2 pot 1.1 and KCNQ2 pot baseline 0.63.
`COc1ccc(NC2=NC(C)(CO)CS2)cc1` (stereo unspecified) gave KCNQ2 pot 0.42 and KCNQ2 pot baseline -0.79.

Part of the list above in order of number of heavy atoms, low to high:
`COc1ccc(NC2=NC(C)(CO)CS2)cc1` (stereo unspecified) gave KCNQ2 pot 0.42 and KCNQ2 pot baseline -0.79.
`CNC(=O)c1cc2c(-c3ccccc3)nn(C)c2s1` gave KCNQ2 pot 0.95 and KCNQ2 pot baseline -0.19.
`CCOC(=O)C(C(=O)OCC)=C1OC(=O)c2ccccc21` gave KCNQ2 pot 0.75 and KCNQ2 pot baseline -0.63.
O=C(Nc1cc2c3c(c1)CC(=O)N3CCC2)c1cccc(F)c1 was read as KCNQ2 pot 0.44 and KCNQ2 pot baseline 0.04.
CCc1ccc2[nH]c3nc(N/N=C/c4ccc(O)cc4O)nnc3c2c1 was read as KCNQ2 pot 0.7 and KCNQ2 pot baseline -1.4.

(more compounds)
`CCn1c(CCCc2ccc(OC)c(C)c2)n[nH]c1=S` gave KCNQ2 pot 0.12 and KCNQ2 pot baseline -1.9.
For COc1ccccc1/C=C/C(=O)NC(=S)N(C)C1CCCCC1 the results were KCNQ2 pot 0.16 and KCNQ2 pot baseline 1.5.
`O=c1[nH]c(/C(Cl)=C/c2c(F)cccc2Cl)nc2cc(Cl)ccc12` gave KCNQ2 pot 0.2 and KCNQ2 pot baseline -0.26.
`CCc1cccc(C)c1NC(=O)CNCc1ccccc1` gave KCNQ2 pot 0.93 and KCNQ2 pot baseline -0.67.
Screening O=C(O)c1cccnc1SC1CC(=O)N(CCc2ccccc2)C1=O (stereo unspecified) returned KCNQ2 pot 0.61 and KCNQ2 pot baseline 0.2.
`CCCc1cc(=O)[nH]c(SCC(=O)c2cc(C)n(C3CC3)c2C)n1` gave KCNQ2 pot 0.67 and KCNQ2 pot baseline 3.8.
Screening Clc1ccc(Oc2cccc(/C=N/n3cnnc3)c2)cc1 returned KCNQ2 pot 2.2 and KCNQ2 pot baseline -1.8.
Screening NC(=O)c1ccc[n+](CC(=O)c2ccc(NC(=O)c3ccccc3)cc2)c1 returned KCNQ2 pot 0.3 and KCNQ2 pot baseline 1.9.
For CC(C)(C)C(=O)Nc1ccc2oc(-c3cc(F)c(F)cc3Cl)nc2c1 the results were KCNQ2 pot 0.63 and KCNQ2 pot baseline 0.24.
O=C(O)c1ccccc1NS(=O)(=O)c1ccccc1C(F)(F)F was read as KCNQ2 pot 0.39 and KCNQ2 pot baseline 2.3.
Screening O=C(COc1cccc2ccccc12)N/N=C/c1ccco1 returned KCNQ2 pot 2.2 and KCNQ2 pot baseline 1.1.
For CCOC(=O)c1ccc2nc(Nc3nc4ccc(F)cc4s3)sc2c1 the results were KCNQ2 pot 1.3 and KCNQ2 pot baseline 3.6.
Screening CN(C(=O)c1cccc(C#N)c1)c1nnc(C2CCOC2)s1 (stereo unspecified) returned KCNQ2 pot 0.27 and KCNQ2 pot baseline -0.22.
Screening CCCn1nnc(NC(=O)c2ccccc2Br)n1 returned KCNQ2 pot 2.1 and KCNQ2 pot baseline -2.5.
COc1ccc(-c2[nH]ncc2CNC(C)c2ccccc2Cl)cc1F (stereo unspecified) was read as KCNQ2 pot 3 and KCNQ2 pot baseline -0.2.
Screening COc1ccc(NC(=O)CN2C(=O)NC(c3ccccc3)(c3ccccc3)C2=O)cc1 returned KCNQ2 pot 0.28 and KCNQ2 pot baseline -3.
CCCCCCNS(=O)(=O)c1ccccc1Br was read as KCNQ2 pot 0.23 and KCNQ2 pot baseline -0.34.
For O=C(Cc1cccs1)N1CCN(S(=O)(=O)c2ccc(Br)cc2)CC1 the results were KCNQ2 pot 0.02 and KCNQ2 pot baseline -1.4.
COc1nccnc1NS(=O)(=O)c1ccc(NC(=O)c2cccc(C)c2)cc1 was read as KCNQ2 pot 1.7 and KCNQ2 pot baseline -2.2.
Cc1ccc(C)c(OCC(=O)Nc2nc3ccc([N+](=O)[O-])cc3s2)c1 was read as KCNQ2 pot 0.01 and KCNQ2 pot baseline 3.8.
Cc1noc(C)c1C(=O)N1CCc2ccccc21 was read as KCNQ2 pot 0.1 and KCNQ2 pot baseline 2.1.
COC(=O)c1cc(S(=O)(=O)Nc2cc(OC)cc(OC)c2)c[nH]1 was read as KCNQ2 pot 1.2 and KCNQ2 pot baseline -1.4.
Screening C=CCn1c(SCC(C)=O)nnc1-c1cc(-c2ccccc2)sc1N returned KCNQ2 pot 0.15 and KCNQ2 pot baseline -0.47.
`O=C(CSc1nnc(CN2CCOCC2)n1-c1ccc(Cl)cc1)N1CCc2ccccc21` gave KCNQ2 pot 0.13 and KCNQ2 pot baseline 0.03.
For CCc1ccc(S(=O)(=O)c2ccc(-n3nc(C)cc3N)cc2)cc1 the results were KCNQ2 pot 0.92 and KCNQ2 pot baseline -0.25.
`COc1ccc(NS(=O)(=O)c2ccc(N3CCCC3)c(NC(=S)Nc3ccc(SC(F)F)cc3)c2)cc1` gave KCNQ2 pot 0.01 and KCNQ2 pot baseline 0.51.
COc1ccc(C(C)=O)cc1COc1ccc([N+](=O)[O-])c(C)c1 was read as KCNQ2 pot 0.21 and KCNQ2 pot baseline -0.07.
For CCN1CCN(c2cc(C)c3cc(NC(=O)c4ccncc4)ccc3n2)CC1 the results were KCNQ2 pot 1.7 and KCNQ2 pot baseline -0.08.
Screening COc1cc2c(cc1OC)CN(C(=O)c1ccco1)CC2 returned KCNQ2 pot 0.18 and KCNQ2 pot baseline -0.6.
For Cc1ccc2nc(N/C(=N/S(=O)(=O)c3ccc(F)cc3)c3ccccc3)sc2c1 the results were KCNQ2 pot 0.28 and KCNQ2 pot baseline -1.3.
Screening COc1ccccc1O returned KCNQ2 pot 0.68 and KCNQ2 pot baseline -0.11.
`Fc1ccccc1/C=N/Nc1cc(N2CCCCC2)ncn1` gave KCNQ2 pot 0.03 and KCNQ2 pot baseline 0.35.

These rows are one share of the data; the hit share may differ from the screen's.
